FGF22 binding = binders of human FGF22 protein, primary screen, FGF22 synaptogenesis inhibitor project, biophysical, thermal shift, single point; calls only at 9.99 µM; hit rate 1.5% among 340,000; recombinant FGF22 thermal shift, SYPRO orange fluorescence; percent of sucrose octasulfate shift, DMSO zero;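 active = melting point raised past a set limit in the mean and every replicate; inconclusive = no clear call; three in four hits are not shown here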
Target sequence (Q9HCT0 whole entry, looked up): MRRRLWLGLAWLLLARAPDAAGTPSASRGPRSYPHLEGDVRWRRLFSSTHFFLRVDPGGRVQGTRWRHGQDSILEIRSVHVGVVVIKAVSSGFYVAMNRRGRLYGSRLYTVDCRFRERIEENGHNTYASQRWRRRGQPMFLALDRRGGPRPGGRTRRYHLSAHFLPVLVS
AF4-AF9 inh = inhibitors of AF4 peptide binding to AF9, primary screen, biochemical, AlphaScreen, biotin-AF4 peptide, FLAG-AF9, single point | Protein AF-9 (Homo sapiens), P42568 | inhibition, % at 10 µM | hit rate 0.47% among 350,000;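 active = every replicate reaching a set inhibition limit, whatever the replicate mean, cut at about 25% in these data; inconclusive = mean inhibition reaches that limit but some replicates miss it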;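 also: 0% = plate neutral control median and 100% = total signal loss; the record names both 10 and 1 µM as test concentration; the first replicate is given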
UCH37 inh = inhibitors of human UCH37 deubiquitinase, primary screen, biochemical, Ub-AMC cleavage, fluorescence | Ubiquitin carboxyl-terminal hydrolase isozyme L5 (Homo sapiens), Q9Y5K5 | inhibition, % (concentration not given with the values) | purified proteasome/UCH37 | hit rate 0.33% among 330,000;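 active = mean of two replicates above 20%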;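 also: 0% = compound-free wells with enzyme and 100% = wells lacking proteasome; stock transfer was 100 nL into about 20 µL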
Target sequence (Q9Y5K5 whole entry, looked up): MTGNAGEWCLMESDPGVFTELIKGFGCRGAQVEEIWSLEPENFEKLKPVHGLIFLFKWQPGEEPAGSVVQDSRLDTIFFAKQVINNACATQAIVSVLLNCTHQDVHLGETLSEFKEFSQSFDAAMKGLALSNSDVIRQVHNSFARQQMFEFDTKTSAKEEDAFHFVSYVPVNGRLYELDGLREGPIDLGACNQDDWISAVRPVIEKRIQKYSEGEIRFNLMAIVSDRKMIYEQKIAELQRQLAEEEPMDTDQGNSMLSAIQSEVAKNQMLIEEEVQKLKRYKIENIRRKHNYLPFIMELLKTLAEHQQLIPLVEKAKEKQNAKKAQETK
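Test system – human UCH37 enzyme supplied as purified proteasome complex · Incubation – 30 min preincubation with enzyme, 25 min cleavage at room temperature · Detection – AMC fluorescence from Ub-AMC cleavage, excitation 355 nm, emission 460 nm · Benchmarks – no-proteasome wells (full inhibition) and compound-free wells (no inhibition)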
RanGTP-Imp inh = inhibitors of RanGTP-importin-beta interaction, primary screen, biochemical, FRET, CFP-Ran, YFP-importin-beta, homogeneous; inhibition, % (no concentration beside the values); cell-free CFP-Ran/YFP-importin-beta FRET ratio; AID 2216, 2009; hit rate 1.1% among 300,000; Ran GTPase (GTP-bound) - importin-beta complex;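 active = most replicates above 15%; inconclusive = exactly half above 15%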;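 also: 0% = DMSO wells and 100% = Ran loaded with GDP instead of GTP; wells of about 40 µL received 100 nL stock; the first replicate is given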
Vif TR-FRET = inhibitors of Vif binding to APOBEC3G peptide, primary screen, biochemical, TR-FRET, GST-Vif 1-94, biotin-A3G peptide, dose response retest (AID 1117319). Virion infectivity factor (Human immunodeficiency virus type 1 group M subtype B (isolate …. TR-FRET GST-Vif / biotin-A3G peptide binding; higher % means a stronger effect; test concentration not given here; strong numbers were not always called active. inhibition, %, or IC50 in µM where a hit was titrated. hit rate 0.57% among 260,000;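 active = above the screen mean plus three standard deviations and confirmed in dose response; inconclusive = results disagree or hit not tested in dose response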;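 also: Vif residues 1-94 fused to GST binding biotinylated APOBEC3G peptide 110-148; 0% = full assay without inhibitor and 100% = GST in place of GST-Vif; retest series ran down from 100 µM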
HNF4A DNA FP = change in binding of human HNF4A to DNA, primary screen, biochemical, fluorescence polarization, FITC-DNA | activity change, % at 10 µM | AID 1224865, 2016 | Hepatocyte nuclear factor 4-alpha (Homo sapiens), P41235 | 1 h | hit rate 0.3% among 360,000; in the data active = activity change above about 30%, passing the limit was not always enough;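 also: controls were the assay level and a saturating level of protein; the project sought stronger binding though the title names inhibitors; some compounds called inactive have numbers as strong as hits; positive values seem to mean higher polarization but the record does not say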
Target sequence (P41235 whole entry, looked up): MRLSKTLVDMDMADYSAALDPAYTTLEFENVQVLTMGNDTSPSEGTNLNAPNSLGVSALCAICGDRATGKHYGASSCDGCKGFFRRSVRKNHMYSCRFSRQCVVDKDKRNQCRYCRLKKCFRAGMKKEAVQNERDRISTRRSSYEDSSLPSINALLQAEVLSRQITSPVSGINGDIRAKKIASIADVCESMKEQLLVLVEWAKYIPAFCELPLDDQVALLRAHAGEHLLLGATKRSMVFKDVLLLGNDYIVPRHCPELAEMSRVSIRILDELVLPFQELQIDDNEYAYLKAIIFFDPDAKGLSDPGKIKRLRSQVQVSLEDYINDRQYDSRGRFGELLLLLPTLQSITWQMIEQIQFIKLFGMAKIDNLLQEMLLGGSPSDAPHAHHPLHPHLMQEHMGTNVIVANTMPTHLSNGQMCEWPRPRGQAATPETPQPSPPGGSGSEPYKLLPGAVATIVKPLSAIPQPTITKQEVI
Ecoli growth = E. coli growth inhibition, primary screen, OD600 | Escherichia coli growth, 23 h; stronger effect = lower value | OD600 absorbance (no concentration beside the values) | hit rate 0.21% among 330,000;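 active = OD600 absorbance below the run mean of sample wells minus 3.6 SD, in any replicate, cut at about 0.56 in these data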;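 also: stock transfer was 300 nL into about 60 µL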
Starred values were filed as active, the others as inactive; i = inactive; ? = inconclusive; / = no result given; & = joins results of further samples. Some of the compounds tested. The share of hits here may be higher or lower than overall.

No.	molecule	FGF22 binding	AF4-AF9 inh	UCH37 inh	RanGTP-Imp inh	Vif TR-FRET	HNF4A DNA FP	Ecoli growth
1	CCOc1ccccc1NC(=S)N1CCC(NC(=O)c2ccco2)CC1	i	-2.5	2.1	/	/	7.4	0.66
2	C=CCN1C(=O)S/C(=C\c2ccc(N3CCOCC3)cc2C)C1=O	/	/	2.6	-1.6	-2%	22	0.71
3	Cc1cc(Nc2ccc3c(c2)OCCO3)n2nc(C)nc2n1	i	-0.6	1.6	-5.5	-2%	3.3	0.7
4	Cc1cc(=O)oc2cc(OCC(=O)Nc3c(C)n(C)n(-c4ccccc4)c3=O)c(Cl)cc12	/	-9.4	-98	/	4%	-2.0	0.71
5	CC1(C(=O)NS(=O)(=O)c2ccc(Cl)cc2)CCN1C(=O)CC1CCCC1 (stereo unspecified)	i	4.4	/	/	/	1.4	/
6	COc1cc2[nH]c(C(=O)N3CCN(c4ccc(F)cc4)CC3)cc2c(OC)c1OC	i	-1.2	-4.9	-0.9	-12%	0.1	0.64
7	O=C(Nc1ccccc1N1CCOCC1)c1ccc(Cl)c(S(=O)(=O)N2CCCC2)c1	i	0.0	-13	/	-4%	-5.7	0.67
8	c1ccc(CC2CCN(Cc3ccccn3)CC2)cc1	i	0.6	-3.0	10	6%	0.5	0.65
9	C/C(=N\NC(=O)CNC(=O)c1ccc(Br)cc1)c1ccco1	i	-0.3	/	0.6	?	-0.5	/
10	Cc1ccc(N=C2NC(=O)CS2)cc1	/	/	1.6	-2.7	33%	2.5	0.68
11	COc1ccc(C(=O)NOCc2ccccc2)cc1	i	-0.5	3.4	3.5	/	-0.4	0.71
12	CCOC(=O)c1ccccc1NS(=O)(=O)c1ccc(S(=O)(=O)N2CCCC2)cc1	i	-4.9	2.1	2.5	3%	-3.7	0.72
13	C#CCNC(=O)C1=C[C@@H](C(C)(C)C)C[C@@H](OCc2ccc(CO)cc2)O1	i	-4.7&-0.6	0.6	2.7	-1%	2.9	/
14	O=C(Nc1cccc(-c2nnc(-c3ccccc3)o2)c1)C1CCCCC1	/	/	0.6	1.6	-6%	1.5	0.7
15	O=C(NCCNCc1cccs1)c1ccccc1F	i	0.5	-0.8	-1.4	14%	5.8	0.71

Profiles, looked up by structure:
COc1cc2[nH]c(C(=O)N3CCN(c4ccc(F)cc4)CC3)cc2c(OC)c1OC is listed with FGF22 binding = i; AF4-AF9 inh = -1.2; UCH37 inh = -4.9; RanGTP-Imp inh = -0.9; Vif TR-FRET = -12%; HNF4A DNA FP = 0.1; Ecoli growth = 0.64
CC1(C(=O)NS(=O)(=O)c2ccc(Cl)cc2)CCN1C(=O)CC1CCCC1 (stereo unspecified) is listed with FGF22 binding = i; AF4-AF9 inh = 4.4; UCH37 inh = /; RanGTP-Imp inh = /; Vif TR-FRET = /; HNF4A DNA FP = 1.4; Ecoli growth = /

3 structures already listed, ordered by SMILES length, largest number first.
No.	molecule	FGF22 binding	AF4-AF9 inh	UCH37 inh	RanGTP-Imp inh	Vif TR-FRET	HNF4A DNA FP	Ecoli growth
9	C/C(=N\NC(=O)CNC(=O)c1ccc(Br)cc1)c1ccco1	i	-0.3	/	0.6	?	-0.5	/
8	c1ccc(CC2CCN(Cc3ccccn3)CC2)cc1	i	0.6	-3.0	10	6%	0.5	0.65
15	O=C(NCCNCc1cccs1)c1ccccc1F	i	0.5	-0.8	-1.4	14%	5.8	0.71

The list continues.
No.	molecule	FGF22 binding	AF4-AF9 inh	UCH37 inh	RanGTP-Imp inh	Vif TR-FRET	HNF4A DNA FP	Ecoli growth
16	Cc1nc(CNC(=O)CC2C(=O)NCCN2Cc2cccc(Oc3ccccc3)c2)cs1 (stereo unspecified)	i	4.0	-0.6	9.9	-10%	0.5	0.72
17	CCn1cc(C(=O)N[C@@H](C)C(=O)NCCCO)c(=O)c2cc3c(cc21)OCO3	i	1.6	-13	1.6	-4%	4.3	0.58
18	COC(=O)c1c(NC(=O)C(=O)N2CCCC2)sc2c1CC(C)(C)OC2	i	3.2	7.2	-2.7	/	1.0	0.67
19	Cc1cccc(N2CCN(c3nc(C)cc(C)c3C#N)CC2C)c1 (stereo unspecified)	i	2.5	-16	?	/	4.0	0.71
20	Cc1ccc(-c2nc3cccnc3s2)cc1NS(=O)(=O)c1cccs1	i	14	-19	0.1	-6%	1.3	0.77
21	CN(C)c1nc(-c2ccccc2)c2cc(Cl)ccc2n1	i	-7.2	-39	21*	1%	-0.1	0.71
22	Cc1ccnc(SCC(=O)c2cccs2)n1	i	-3.9	0.8	1.3	-10%	0.3	0.65
23	CCOCC(=O)Nc1nc2c(s1)C(=O)CC(C)(C)C2	i	-0.6	0.5	?	1%	4.8	0.69
24	Cc1cccc(NC(=O)C2CCN(S(=O)(=O)c3cccc4nsnc34)CC2)n1	/	/	1.8	-2.6	-2%	-4.0	0.7
25	O=C(O)C(=O)/C(=C\c1ccsc1)c1ccc2ccccc2n1	i	3.6	-3.9	20*	/	3.4	0.64
26	CCOc1[nH]n(-c2ccc(Cl)cc2)c(=O)c1C=NCC(=O)OC	i	0.1	5.0	3.5	-8%	1.4	0.69
27	Cc1ccc(OCCCN2CCOCC2)cc1	/	-2.6	2.6	0.0	/	-6.1	0.65
28	O=C(Nc1ccc(Br)cc1F)C1CCCO1 (stereo unspecified)	/	/	0.6	-0.3	4%	2.3	0.65
29	CN1CCN(c2ccc(S(=O)(=O)N3CCOCC3)cc2NC(=O)CSCc2ccccc2)CC1	i	0.1	1.0	/	/	-1.1	0.69
30	O=C1CC2(CCN(S(=O)(=O)c3ccccc3F)CC2)Oc2ccccc21	i	1.7	-8.8	-3.7	3%	-1.7	0.71
31	COc1ccc(C(=O)NC2CCSc3ccccc32)cc1F (stereo unspecified)	i	?	4.3	-9.0	/	2.0	0.67
32	COc1cc(C(=O)OC(C)CN2CCOCC2)cc(OC)c1OC (stereo unspecified)	i	-4.1	2.4&-0.8	-1.3&4.5	-1%&-1%	0.0&0.7	0.7&0.61
33	Cc1cc(NC(=O)CCC(=O)N(Cc2ccco2)C(C(=O)NC2CCCC2)c2ccccc2)no1 (stereo unspecified)	i	-2.0	3.2	4.0	/	1.2	0.7
34	CS(=O)(=O)c1ccc(Cl)c(NC(=O)CN2CCCC2c2ccc3c(c2)OCCCO3)c1 (stereo unspecified)	i	2.1	5.4	/	0%	-0.1	0.69
35	CCn1c(=O)c(C(=O)NCc2ccc(OC)c(OC)c2)c(O)c2ccccc21	/	/	-4.4	7.2	11%	-1.4	0.72
36	CCC(C)n1c(SCC(=O)NC2CC2)nc2ccccc2c1=O (stereo unspecified)	i	-0.4	/	/	/	1.3	/
37	N#C/C(C(=O)N1CCOCC1)=C1/SC(Cc2ccccc2)C(=O)N1c1ccccc1 (stereo unspecified)	/	/	1.8	0.0	67%&14%	-1.0	0.71
38	CCCc1cc(C(=O)Nc2cccc(Cl)c2)no1	i	-2.8	0.3	0.6	2%	1.0	0.7
39	Cc1ccc(C2C3C(=O)N(c4ccc(C)cc4)C(=O)C3N3CCCN23)cc1 (stereo unspecified)	i	-1.8	5.2	-1.9	4%	0.4	0.65
40	Cc1ccc(C(=O)NNC2=NCCC2)cc1	/	/	2.9	-3.8	4%	-1.6	0.72
41	COc1ccccc1NC(=O)COc1ccc(C(=O)NCc2ccccc2)cc1OC	i	-1.2	-0.7	/	-18%	-0.9	0.7
42	O=C1CN(C(=O)COC(=O)COc2ccccc2)c2ccccc2N1	i	-3.1	-6.7	/	/	-24	0.7
43	O=C(Nc1ccn(Cc2ccccc2)n1)c1ccc2c(c1)OCO2	i	-1.7	4.9	-1.1	/	1.0	0.7
44	CCS(=O)(=O)Nc1ccc(-c2nnc(SCC(=O)c3ccc(NC(C)=O)c(OC)c3)o2)cc1	/	/	/	-3.0	-2%	1.6	0.7
45	CN(c1ccc(C(=O)NCCC2=CCCCC2)cc1)S(C)(=O)=O	/	/	1.9	2.9	-8%	3.7	0.7
46	Cc1nc2c3c(sc2c(=O)[nH]1)NC(=O)CC3c1ccccc1Cl (stereo unspecified)	i	10	5.3	1.1	-89%	-1.9	0.69
47	CN(Cc1ccccc1)S(=O)(=O)c1ccc(OCC(=O)NCc2ccccn2)cc1	i	-7.7	1.4	1.5	/	3.5	0.71
48	Nc1nc(C(F)(F)F)cc(=O)n1N	i	-0.6	3.7	-3.2	-13%	2.0	0.69
49	CCCNC(=O)NC(=O)CSc1nc(C)cs1	i	-0.7	6.1	-3.4	8%	-0.9	0.67
50	Cc1cccc(C2Nc3cccc4cccc(c34)N2)c1	i	3.0	-9.4	-5.7	0%	1.9	0.64
51	CCOC(=O)N1CCN(C(=O)c2cn(CC)c3ccc(S(=O)(=O)N4CCCCC4)cc3c2=O)CC1	/	0.0	4.6	2.1	11%	-1.0	0.66
52	COc1ccc(Nc2ccccc2N)cc1	i	40*	-1.5	1.1	?	35	0.7
53	Cc1ccc(S(=O)(=O)N(C)C)cc1NC(=O)COC(=O)CCC(=O)c1ccc(F)cc1	i	-0.2	-0.6	2.4	-7%	-1.2	0.68
54	COc1c(Cl)cc(C(=O)O)cc1Cl	i	7.6	-4.0	-3.2	/	2.5	0.79
55	COc1cccc(C(=O)Cn2c(Br)nc3c2c(=O)n(C)c(=O)n3C)c1	/	/	1.4	1.6	-2%	1.3	0.68
56	Cc1nnc(NC(=O)CSc2nnc(CNC(=O)c3ccccc3)o2)s1	i	-5.4	-0.4	6.6	1%	3.1	0.65
57	COc1cc(/C=N/Nc2nc3ccccc3s2)ccc1OC(=O)c1ccccc1F	i	-36	/	1.9	-1%	-2.0	/
58	COC(=O)c1c(NC(=O)c2cccc([N+](=O)[O-])c2)sc(C(N)=O)c1C	i	-1.8	1.5	/	-1%	0.5	0.66
59	CCCc1c(OCCCOc2ccc(OCC(=O)O)cc2)ccc(C(C)=O)c1O	i	0.3	0.0	/	/	-2.8	0.67
60	Cn1c(=O)c2c(nc(CN3CCN(CCO)CC3)n2Cc2ccccc2Cl)n(C)c1=O	i	-6.2	2.4	3.0	/	-2.7	0.82
61	O=C(NCC(O)CO)c1csc(Nc2cccc3ccccc23)n1 (stereo unspecified)	i	1.7	0.2	-0.4	-5%	-0.2	0.63
62	O=C(NC1CCCc2c1cnn2-c1ccc(F)cc1F)c1csnn1 (stereo unspecified)	i	-1.7	1.7	?	/	0.2	0.72
63	CN(CCc1ccccn1)C(=O)CC1C(=O)NCCN1Cc1ccccc1C(F)(F)F (stereo unspecified)	i	-1.1	-2.5	0.6	16%	0.6	0.71
64	O=C(N1CCN(c2ccccc2F)CC1)C12CC3CC(CC(C3)C1)C2	/	/	2.6	1.7	18%	-0.1	0.67
65	O=C(NC(=S)Nc1cccc([N+](=O)[O-])c1)c1ccccc1	i	0.1	4.8	3.2	2%	-6.1	0.63
66	Cc1ccc(SCCNCc2ccco2)cc1	i	-1.3	0.2	0.2	-1%	3.4	0.63
67	COc1ccc(-n2c(C)c([N+](=O)[O-])c3ccc(O)c(CN(C)C)c32)cc1	/	/	1.3	3.4	4%	0.6	0.75
68	COc1cc(C(=O)Nc2ccc3c(c2)OCO3)ccc1-n1cnnn1	/	/	-1.6	-0.1	-1%	2.7	0.68
69	CCSc1cc(C)nc2ncnn12	/	/	4.3	-0.7	3%	2.3	0.73
70	CN(C)S(=O)(=O)n1cc(/C=C(\NC(=O)c2ccccc2Cl)C(=O)NCCCN2CCOCC2)c2ccccc21	i	0.1	0.5	4.7	/	2.5	0.7
71	COc1ccc(NC(=O)CCc2nc3ccccc3[nH]2)cc1	i	-7.9	4.0	2.5	2%	-2.3	0.63
